Screening results from PubChem.
MT1-MMP act inh: MT1-MMP (human) activation inhibition. HT1080 RFP-PRO-GFP cells, GFP/RFP ratio fluorescence, overnight; percent of plate control window, DMSO zero. GFP/RFP ratio change, % at 20 µM. 360,000 tested, 0.061% active. AID 651647;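 active = GFP/RFP ratio change of at least 30% with cell ATP level not reduced by more than half and red fluorescence within 50% of control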; note: strong numbers were not always called active
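Assay system: HT1080 RFP-PRO-GFP cells. Benchmarks: DMSO vehicle wells and RFP-L50D-GFP reporter cell wells. Times: overnight cell settling, then overnight compound exposure, 37 °C, 5% CO2. Compound: 20 µM single dose, 1% DMSO. Read-out basis: GFP/RFP fluorescence ratio.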
eIF4H inh: inhibitors of RNA binding by human eIF4H; eIF4H fluorescence polarization binding assay; 290,000 tested, 0.94% active; Q15056; inhibition, % at 35 µM;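 active = 50% or more with normal probe brightness, or confirmed in later tests; inconclusive = above 50% with abnormal brightness, or retests that disagree; inactive = below 50% or failed in later tests; about a fifth of its hits are not listed in these tables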;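 note: calls also rest on retests at 20 µM and on dose response follow-up; 0% = protein and probe with vehicle and 100% = probe without protein; strong numbers were not always called active; many hits fall short of the cut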
Env fusion inh: blocks HIV Env-driven cell-cell fusion; HeLa-JRFL Env/CEM21 cell fusion, luciferase; inhibition, % at 12.3 µM; 360,000 tested, 1.1% active; AID 651610;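 active = mean replicate inhibition score of at least 50 and every replicate individually at or above 50; inconclusive = only one of the two criteria met; inactive = mean below 50 and not all replicates reaching 50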;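 note: 0% = plate neutral controls and 100% = maraviroc near 300 nM; one replicate is shown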
Rce1 inh: yeast Ras-converting enzyme inhibition; Q03530; yeast membranes, quenched prenylated peptide cleavage fluorescence; calls only; 290,000 tested, 0.27% active; AID 2563;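 active = fall in fluorescence gain of 50% or more versus controls, with final raw signal at or below 3038400; inconclusive = same 50% fall but final raw signal above 3038400; inactive = fall in fluorescence gain under 50%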;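 note: plate controls were neutral control wells for no effect and wells lacking membranes for full effect; tested at 10 µM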
CSC inhib: cancer stem cell inhibition; cancer stem cell-like cells viability, luminescence; 300,000 tested, 1.1% active; AID 2717; inhibition, % at 7.5 µM;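 active = mean at 75% or more and at least half the replicates too; inconclusive = mean and replicates disagree; tested in HMLE shEcad cells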;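 note: 0% = median of negative and 100% = median of positive control wells; the first replicate is given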
UUG fidelity: alters start codon recognition fidelity in yeast; S. cerevisiae UUG-firefly luciferase reporter, luminescence/redox ratio; activity score, % at 18.7 µM; 350,000 tested, 0.13% active; AID 602363;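 active = replicate mean at a twofold rise or more, about +100% in these data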;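 note: firefly luciferase made from a UUG start codon reports start codon fidelity; reporter light over untreated wells divided by growth signal over untreated wells; some hits fall short of that in this replicate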
PABP FP inh: PABP-poly(A) binding inhibition; inhibition, % at 35 µM; PABP-poly(A) RNA binding, fluorescence polarization; AID 2014; 290,000 tested, 1% active;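 active = 50% or more with normal probe brightness, or confirmed in later tests; inconclusive = above 50% with abnormal brightness, or retests that disagree; inactive = below 50% or failed in later tests; about a fifth of its hits are not listed in these tables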;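 note: calls also rest on retests at 20 µM and on dose response follow-up; controls were probe without protein and protein plus probe with vehicle; some compounds called inactive have numbers as strong as hits; many hits fall short of the cut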
Target sequence (P11940 whole entry, looked up): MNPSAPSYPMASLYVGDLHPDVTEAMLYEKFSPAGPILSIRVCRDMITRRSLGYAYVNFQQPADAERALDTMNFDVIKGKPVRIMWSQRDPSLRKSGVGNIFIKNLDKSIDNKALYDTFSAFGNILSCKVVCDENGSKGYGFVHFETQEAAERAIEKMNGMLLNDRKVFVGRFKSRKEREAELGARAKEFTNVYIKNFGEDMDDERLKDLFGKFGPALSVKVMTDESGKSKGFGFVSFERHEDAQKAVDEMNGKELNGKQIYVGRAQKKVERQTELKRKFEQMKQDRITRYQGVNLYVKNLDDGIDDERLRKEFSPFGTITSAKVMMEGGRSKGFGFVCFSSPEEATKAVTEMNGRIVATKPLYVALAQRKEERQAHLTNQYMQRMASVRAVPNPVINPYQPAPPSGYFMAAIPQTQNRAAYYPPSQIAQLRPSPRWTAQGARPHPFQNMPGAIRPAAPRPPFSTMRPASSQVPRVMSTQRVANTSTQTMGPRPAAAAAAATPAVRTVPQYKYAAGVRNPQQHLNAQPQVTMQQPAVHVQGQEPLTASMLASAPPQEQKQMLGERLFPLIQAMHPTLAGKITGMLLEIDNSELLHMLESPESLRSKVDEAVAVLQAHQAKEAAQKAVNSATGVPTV
eIF4H inh retest: further read-out of eIF4H inh, marked with its call; inhibition, %; compound at 20 µM; confirmation average;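 mean of two retest wells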
PABP FP inh retest: second read-out of PABP FP inh, no call of its own (marks repeat the call); inhibition, %; compound at 20 µM; confirmation repeats;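 mean of two retest wells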
MT1-MMP act inh RFP: second read-out of MT1-MMP act inh, no call of its own (marks repeat the call); RFP signal change, %; measured here: RFP expression control read;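 0 = vehicle wells; hits needed this value within 50% of zero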
The depositor's hits bear a star.

For CSCC[C@H](NC(=O)c1cc2c([nH]c3ccccc32)c(-c2ccccc2)n1)C(=O)O the results were MT1-MMP act inh 4, eIF4H inh 9, Env fusion inh -5, Rce1 inh inactive, UUG fidelity -14, PABP FP inh 14 and MT1-MMP act inh RFP 5.
For O=C(N/N=C\c1c(O)ccc2ccccc12)c1ccc(S(=O)(=O)N2CCCCC2)cc1 the results were MT1-MMP act inh -275, eIF4H inh 64*, Env fusion inh 10, Rce1 inh inactive, CSC inhib 100*, PABP FP inh 54* and MT1-MMP act inh RFP -18.
`O=C(NCc1ccccc1)c1cccc(COc2cc(Cl)ccc2Cl)c1` gave MT1-MMP act inh -2, eIF4H inh -6, Env fusion inh -18, Rce1 inh inactive, CSC inhib 4, UUG fidelity -15, PABP FP inh 14 and MT1-MMP act inh RFP -5.
`Cc1cc(C(=O)N/N=C/c2cc(Br)ccc2OC(=O)c2ccccc2Cl)n[nH]1` gave MT1-MMP act inh 2, eIF4H inh 0, Env fusion inh 17, Rce1 inh inactive, UUG fidelity -4, PABP FP inh 4 and MT1-MMP act inh RFP -9.
Screening Cc1ccc2nc(-c3ccccn3)cc(C(=O)Nc3ccc(S(=O)(=O)N4CCOCC4)cc3)c2c1 returned MT1-MMP act inh -1, eIF4H inh 7, Env fusion inh 16, Rce1 inh inactive, CSC inhib 5, UUG fidelity -24, PABP FP inh -10 and MT1-MMP act inh RFP -9.
`COCCNC(=O)C1CCCN(C(=O)COc2ccc(C(C)(C)C)cc2)CC1` (stereo not given) gave MT1-MMP act inh 3, Env fusion inh -12, UUG fidelity -18 and MT1-MMP act inh RFP 3.
O=C1/C(=C\c2cccnc2)CCc2ccccc21 was read as MT1-MMP act inh -10, eIF4H inh -4, Rce1 inh inactive, CSC inhib 1, UUG fidelity -27, PABP FP inh -6 and MT1-MMP act inh RFP -8.
COc1ccc(Cl)c(-c2cc(C(=O)Nc3ccccc3)[nH]n2)c1 was read as MT1-MMP act inh 8, Env fusion inh -366, UUG fidelity 6 and MT1-MMP act inh RFP -5.
`Cc1cc2n(n1)C(c1sccc1C)Nc1c(C)cccc1-2` (stereo not given) gave MT1-MMP act inh -3, eIF4H inh -6, Env fusion inh -35, Rce1 inh inactive, CSC inhib 13, UUG fidelity -9, PABP FP inh -6 and MT1-MMP act inh RFP -3.
Cc1ccc(CNS(=O)(=O)c2ccc(Cl)s2)cc1 was read as MT1-MMP act inh 1, Env fusion inh -33, UUG fidelity -5 and MT1-MMP act inh RFP 3.
Screening O=C(N/N=C/c1ccc2c(c1)OCO2)C(=O)Nc1ccc2ccccc2c1 returned eIF4H inh -8, Env fusion inh -13, Rce1 inh inactive, CSC inhib 0 and PABP FP inh 6.
CCOC(=O)CCNC(=O)N1CCCC(N(C)CCc2ccc(OC)c(OC)c2)C1 (stereo not given) was read as MT1-MMP act inh -3, eIF4H inh -3, Env fusion inh 2, Rce1 inh inactive, CSC inhib 1, UUG fidelity -14, PABP FP inh 4 and MT1-MMP act inh RFP -1.

Gathered by group, the entries above containing an aryl methoxy group
COc1ccc(Cl)c(-c2cc(C(=O)Nc3ccccc3)[nH]n2)c1 was read as MT1-MMP act inh 8, Env fusion inh -366, UUG fidelity 6 and MT1-MMP act inh RFP -5.
CCOC(=O)CCNC(=O)N1CCCC(N(C)CCc2ccc(OC)c(OC)c2)C1 (stereo not given) was read as MT1-MMP act inh -3, eIF4H inh -3, Env fusion inh 2, Rce1 inh inactive, CSC inhib 1, UUG fidelity -14, PABP FP inh 4 and MT1-MMP act inh RFP -1.

Additional records follow.
Cc1cccc(NC(=O)COC(=O)c2ccc([N+](=O)[O-])o2)c1C was read as MT1-MMP act inh 5, eIF4H inh -2, Env fusion inh 20, Rce1 inh inactive, CSC inhib -29, UUG fidelity -13, PABP FP inh -11 and MT1-MMP act inh RFP 3.
Screening CCc1ccc(NSc2ccccc2[N+](=O)[O-])cc1 returned MT1-MMP act inh 0, eIF4H inh -16, Env fusion inh 0, Rce1 inh inactive, CSC inhib 70, PABP FP inh 0 and MT1-MMP act inh RFP -5.
`O=C(c1cc2c(=O)n3ccccc3nc2s1)N1CCc2ccccc2C1` gave eIF4H inh -5, Rce1 inh inactive, CSC inhib 10 and PABP FP inh -10.
CCOC(=O)C1=C(C)N(C)C(C)=C(C(=O)OCC)C1c1ccc(C(=O)OC)cc1 was read as MT1-MMP act inh 7, eIF4H inh 1, Rce1 inh inactive, CSC inhib 0, UUG fidelity -14, PABP FP inh 3 and MT1-MMP act inh RFP 4.
For Cc1ccc(OCCN2C(=O)C(=O)c3cc(C)ccc32)cc1 the results were MT1-MMP act inh 5, eIF4H inh -3, Env fusion inh -87, Rce1 inh active, CSC inhib inconclusive, UUG fidelity 0, PABP FP inh -2 and MT1-MMP act inh RFP 5.
For CC1(C)Cc2c(sc(NC(=O)C(=O)NCCCN3CCOCC3)c2C(N)=O)CO1 the results were MT1-MMP act inh 1, eIF4H inh -7, Env fusion inh 5, Rce1 inh inactive, CSC inhib 4, UUG fidelity -9, PABP FP inh 4 and MT1-MMP act inh RFP 3.
`CCOC(=O)C1CCCCN1Cc1ccc(OC)c(OC)c1` (stereo not given) gave MT1-MMP act inh -4, eIF4H inh 4, Env fusion inh 3, Rce1 inh inactive, CSC inhib -7, UUG fidelity -13, PABP FP inh 7 and MT1-MMP act inh RFP 1.
`O=C(Nc1cccc(NC(=O)c2cncc(Br)c2)c1)c1cncc(Br)c1` gave MT1-MMP act inh 4, eIF4H inh -11, Env fusion inh -6, Rce1 inh inactive, CSC inhib -15, UUG fidelity -9, PABP FP inh -8 and MT1-MMP act inh RFP -2.
CC1=C(C)CC(C(=O)N2CCN(C/C=C/c3ccccc3)CC2)C(C(=O)O)C1 (stereo not given) was read as MT1-MMP act inh 1, eIF4H inh 6, Env fusion inh 9, Rce1 inh inactive, CSC inhib -14, UUG fidelity 9, PABP FP inh 0 and MT1-MMP act inh RFP 2.
O=C(Nc1ccc(Br)cc1Cl)N1CCOCC1 was read as MT1-MMP act inh -1, eIF4H inh -4, Env fusion inh -26, Rce1 inh inactive, CSC inhib -13, PABP FP inh -2 and MT1-MMP act inh RFP 5.
`O=C(C1CCCN(Cc2ccccc2Br)C1)N1CCCCC1` (stereo not given) gave MT1-MMP act inh 0, eIF4H inh 3, Env fusion inh -63, Rce1 inh inactive, CSC inhib -10, UUG fidelity -11, PABP FP inh 4 and MT1-MMP act inh RFP 1.
Screening O=S(=O)(Cc1ccccc1)N1CCCC(c2nc(-c3ccc(F)cc3)no2)C1 (stereo not given) returned MT1-MMP act inh 1, eIF4H inh -10, Env fusion inh 21, Rce1 inh inactive, CSC inhib 11, UUG fidelity 3, PABP FP inh -6 and MT1-MMP act inh RFP 2.
For O=C1c2ccccc2NC(c2ccco2)N1O (stereo not given) the results were MT1-MMP act inh 4, eIF4H inh -2, Rce1 inh inactive, UUG fidelity 5, PABP FP inh -4 and MT1-MMP act inh RFP 10.
For COC(Cn1cc(C)c(=O)[nH]c1=O)OC the results were MT1-MMP act inh 6, eIF4H inh -1, Env fusion inh -5, Rce1 inh inactive, CSC inhib -4, UUG fidelity -12, PABP FP inh 3 and MT1-MMP act inh RFP 5.
Cc1ccc2c(c1)[nH]c1c(=O)n(CCN3CCNCC3)cnc12 was read as MT1-MMP act inh 6, eIF4H inh -2, Rce1 inh inactive, PABP FP inh -2 and MT1-MMP act inh RFP 2.
Screening CCn1c(CSCc2ccc(Cl)cc2)nnc1SCC(=O)Nc1cccc(C(=O)O)c1 returned MT1-MMP act inh -4, eIF4H inh -10, Env fusion inh -2, Rce1 inh inactive, CSC inhib -18, PABP FP inh -3 and MT1-MMP act inh RFP 2.
COc1ccc(S(=O)(=O)N2C3CCC2CC(NC(=O)NC2CCCCC2)C3)cc1 (stereo not given) was read as MT1-MMP act inh -4, eIF4H inh 2, Rce1 inh inactive, CSC inhib 1, UUG fidelity -20, PABP FP inh 4 and MT1-MMP act inh RFP -4.
`CCc1ccc(NC(=O)CSCc2nc(N)nc(Nc3ccccc3CC)n2)cc1` gave MT1-MMP act inh 3, eIF4H inh -10, Env fusion inh 61*, Rce1 inh inactive, CSC inhib -9, UUG fidelity -25, PABP FP inh 1 and MT1-MMP act inh RFP -4.
For Cc1c(NC(=O)C(C)Oc2ccc(Br)cc2)c(=O)n(-c2ccccc2)n1C (stereo not given) the results were MT1-MMP act inh -4, Env fusion inh -6, CSC inhib -20, UUG fidelity -10 and MT1-MMP act inh RFP 1.
For COc1ccccc1NC(=S)N1CCN(C/C=C/c2ccccc2)CC1 the results were MT1-MMP act inh 4, eIF4H inh 8, Rce1 inh inactive, CSC inhib -4, PABP FP inh -15 and MT1-MMP act inh RFP 5.
CCCN1Cc2cccc(C(=O)Nc3ccc(-c4nc5ccccc5[nH]4)cc3)c2C1=O was read as MT1-MMP act inh 9, eIF4H inh -4, Rce1 inh inactive, CSC inhib 9, UUG fidelity -8, PABP FP inh -3 and MT1-MMP act inh RFP 5.
CCOc1ccc(-n2c(SCC(=O)N3CCc4ccccc43)nnc2-c2c[nH]c3ccccc23)cc1 was read as MT1-MMP act inh 1, eIF4H inh -3, Env fusion inh -9, Rce1 inh inactive, CSC inhib 12, UUG fidelity -17, PABP FP inh -3 and MT1-MMP act inh RFP 0.
For O=C(c1ccoc1)N1CCC2(CC1)Oc1ccc(F)cc1C(=O)C21CC(c2ccccc2)=NO1 (stereo not given) the results were MT1-MMP act inh -4, eIF4H inh -3, Env fusion inh -159, Rce1 inh inactive, CSC inhib 0, UUG fidelity -11, PABP FP inh 8 and MT1-MMP act inh RFP 2.
For O=C(O)CC(c1cccc2ccccc12)n1cccc1 (stereo not given) the results were MT1-MMP act inh 7, eIF4H inh 21, Env fusion inh -26, Rce1 inh inactive, CSC inhib 0, UUG fidelity -8, PABP FP inh 11 and MT1-MMP act inh RFP -1.
`COc1ccccc1NC(=S)NC(=O)C1CC1` gave MT1-MMP act inh -5, eIF4H inh -5, Env fusion inh -13, Rce1 inh inactive, CSC inhib -23, UUG fidelity -22, PABP FP inh 0 and MT1-MMP act inh RFP 2.
Screening Cc1ccc2nc(N3CCN(c4ccccc4F)CC3)c(C=O)c(=O)n2c1 returned MT1-MMP act inh -2, eIF4H inh 58, Env fusion inh 8, Rce1 inh inactive, CSC inhib -2, PABP FP inh 21*, eIF4H inh retest -3, PABP FP inh retest 93* and MT1-MMP act inh RFP 3.
`COC(=O)CSc1nc(-c2ccccc2)nc2ccccc12` gave MT1-MMP act inh 3, eIF4H inh -9, Env fusion inh inconclusive, Rce1 inh inactive, CSC inhib -4, PABP FP inh 10 and MT1-MMP act inh RFP 1.
For CCc1ccc(-c2cn3nc(C)c(C)nc3n2)cc1 the results were MT1-MMP act inh -7, eIF4H inh 9, Env fusion inh 76*, Rce1 inh inactive, CSC inhib -11, UUG fidelity -62, PABP FP inh 2 and MT1-MMP act inh RFP 3.
For Cc1[nH]nc2c1C(C1CC=CCC1)C(C#N)=C(N)O2 (stereo not given) the results were MT1-MMP act inh -2, eIF4H inh -16, CSC inhib 1, UUG fidelity -22, PABP FP inh -3 and MT1-MMP act inh RFP -1.
Screening COc1ccc(C(C)=O)c(Oc2nc(CN3CCOCC3)nc3scc(-c4cccs4)c23)c1 returned MT1-MMP act inh -3, eIF4H inh 0, Env fusion inh -94, Rce1 inh inactive, CSC inhib -1, UUG fidelity 8, PABP FP inh 0 and MT1-MMP act inh RFP 2.
